SARS PLpro yeast: inhibitors of SARS-CoV papain-like protease in yeast | hit rate 0.19% among 330,000 | Potency, µM (highest dose often 32.9 µM), inactives show top-dose activity, positive = growth rescue | S. cerevisiae expressing SARS-CoV PLpro, growth rescue; control for the full effect not named in the record | AID 485353; active means well fitted rising curve with a large enough effect; inconclusive means small, poorly fitted or top-dose-only effect; inactive means no such curve, though single readings can be large or run the other way; note: 0% is about no effect; nearly all actives have a fitted effect of over 55% in size; growth read by luminescence after 48 h
Cruzain inh Det: blocks cruzain activity in presence of Triton detergent | hit rate 0.43% among 200,000 | purified cruzain, Z-FR-AMC fluorescence, 0.01% Triton | AID 1478 | Potency, µM, for inactives: max response, negative = inhibition, hits mostly inhibitors | P25779;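 note: plate controls were neutral wells for no effect and buffer without enzyme for full effect; nearly all actives have a fitted effect of over 40% in size; top concentration of the series not given in the record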
Target sequence (P25779 123-467 limits assumed): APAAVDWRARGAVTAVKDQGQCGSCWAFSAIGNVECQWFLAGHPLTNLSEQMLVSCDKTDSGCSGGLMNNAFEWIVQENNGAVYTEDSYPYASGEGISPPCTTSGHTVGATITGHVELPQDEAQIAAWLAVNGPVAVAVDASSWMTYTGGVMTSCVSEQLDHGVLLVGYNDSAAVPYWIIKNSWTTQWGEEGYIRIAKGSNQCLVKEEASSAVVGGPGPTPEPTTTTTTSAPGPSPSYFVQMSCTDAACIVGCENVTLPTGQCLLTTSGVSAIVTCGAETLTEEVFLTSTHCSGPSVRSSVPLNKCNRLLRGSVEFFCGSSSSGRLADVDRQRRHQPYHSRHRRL
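Read-out: AMC fluorescence (360 nm excitation, 450 nm emission), four reads over 2 min, first-to-third difference used. Conditions: cruzain 1.5 nM, Z-FR-AMC 2 uM, pH 5.5 acetate, 5 mM DTT, 0.01% Triton X-100.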
Cruzain inh noDet: inhibitors of Trypanosoma cruzi cruzain without detergent | P25779 | purified cruzain, Z-FR-AMC fluorescence, no detergent | Potency, µM, inactives show max response, negative = inhibition, hits mostly inhibitors | hit rate 2.3% among 200,000 | AID 1476;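 note: plate controls were enzyme without inhibitor for no effect and buffer without enzyme for full effect; nearly all actives have a fitted effect of over 40% in size; top concentration of the series not given in the record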
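Detergent-free condition (0.00005% Triton X-100) in acetate buffer pH 5.5 with DTT. 1.5 nM enzyme and compound were pre-mixed 15 min, then 2 uM Z-FR-AMC substrate added; reaction progress from fluorescence change between first and third reads (60 s).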
RE007 growth inh: less growth of the S. pombe RE007 Vpr strain; S. pombe RE007 Vpr strain, BacTiter-Glo ATP luminescence, 24 h; control for the full effect not named in the record; Potency, µM (series often up to 92.2 µM), inactives show top-dose activity change, negative = less growth; hit rate 0.21% among 360,000; active = well fitted falling curve with a large enough effect; inconclusive = small, poorly fitted or top-dose-only effect; inactive = no such curve, though single readings can be large or run the other way;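 note: % is set by controls: 0 for no effect and ±100 for the full control effect; nearly all actives have a fitted effect of over 50% in size; the assay follows cell death caused by Vpr and the record does not say whether a fall means rescue or toxicity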
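Fission yeast RE007 carrying one integrated HIV-1 vpr copy, seeded at OD 0.01 in PMG+AL medium with 23 nL pinned compound. Grown 24 h at 30 degrees; viability read by BacTiter-Glo luminescence after 5 min.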
StopGo reporter: FMDV 2A StopGo reporter, luciferase signal | Potency, µM (doses to about 57.9 µM), for the others: at the highest dose signal change, negative = less light | hit rate 1.2% among 410,000 | human cells with a luciferase reporter of 2A StopGo recoding; control for the full effect not named in the record; active = well fitted falling curve with a large enough effect; inconclusive = small, poorly fitted or top-dose-only effect; inactive = no such curve, though single readings can be large or run the other way; tested in HEK293T cells; note: % is set by controls: 0 for no effect and ±100 for the full control effect; nearly all actives have a fitted effect of over 45% in size; luciferase light after 4 h
Marburg entry inh: Marburg virus entry inhibition | Marburg virus pseudotyped entry inhibition, cell reporter; control for the full effect not named in the record; about a third of the inactives were read at about 46 µM | Potency, µM (highest dose often 37.8 µM), for inactives: at the top dose activity change, negative = inhibition, actives largely listed as inhibitors | hit rate 1.8% among 300,000; active = well fitted inhibition curve with a large enough effect; inconclusive = small, poorly fitted or top-dose-only effect, or effect the other way; inactive = flat fitted curve, though single readings scatter; tested in HEK293 cells; about a fifth of its hits are not listed in these tables; note: % is set by controls: 0 for no effect and ±100 for the full control effect; luciferase read-out
Lassa entry inh: inhibitors of Lassa virus binding or cell entry; Lassa virus pseudotype entry inhibition, cell reporter; control for the full effect not named in the record; Potency, µM (doses to about 37.9 µM), without a hit: top-dose activity change, negative = inhibition, actives largely listed as inhibitors; hit rate 1.2% among 300,000; active means well fitted inhibition curve with a large enough effect; inconclusive means small, poorly fitted or top-dose-only effect, or effect the other way; inactive means flat fitted curve, though single readings scatter; tested in HEK293 cells; note: % is set by controls: 0 for no effect and ±100 for the full control effect; nearly all actives have a fitted effect of over 50% in size; luciferase read-out
NS1 inh: blocks influenza NS1 protein function | AID 2326 | hit rate 0.4% among 270,000 | S. cerevisiae slowed by influenza A NS1, growth recovery by OD600 | Potency, µM (top dose mostly 46.1 µM), inactives show at the highest dose activity, positive = more growth; active means well fitted rising curve with a large enough effect; inconclusive means small, poorly fitted or top-dose-only effect; inactive means no such curve, though single readings can be large or run the other way; note: nearly all actives have a fitted effect of over 50% in size
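Read-out: OD600 growth recovery of NS1-expressing budding yeast. Cells grown overnight at 30C in -URA glucose medium, washed, resuspended and diluted 1:100 in 2% galactose assay medium, pH 6.0. Same strain lacking NS1 served as positive control.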
* marks the source's active call; other numbers are inactive results; ? = inconclusive; · = no result given; & = joins results of further samples; [ ] = remark or other dose. Unless noted, calls come from the whole dose curve; as a rule, active = well fitted curve in the direction sought with a large enough effect; inconclusive = small, poorly fitted or top-dose-only effect, or another doubt; inactive = no such curve, though single readings can be large; an effect the other way counts as inactive or inconclusive. Potency is the fitted concentration of half-maximal effect.

Each structure is followed by: SARS PLpro yeast	Cruzain inh Det	Cruzain inh noDet	RE007 growth inh	StopGo reporter	Marburg entry inh	Lassa entry inh	NS1 inh
CC(=O)OCCOc1nc(NC(C)C)nc(NC(C)C)n1
→ -9.1%	-2.1%	-2.8%	6.4%	-2.6%	3.5%	-14.1%	-3.4%
COc1ccc(N2CCN(C(=O)CSc3ccc(C)cc3)CC2)cc1
→ 0.6%	·	·	-7.2%	6.6%	19.9%[14.2 µM]	13.6%	2.0%
O=C(NNC(=O)c1cc(OCC(F)(F)F)ccc1OCC(F)(F)F)c1cccc(C(F)(F)F)c1
→ -2.1%	-7.0%	-0.7%	1.4%	14.2%	-1.4%	-5.1%	-17.1%
O=C(CC1NCCN(Cc2ccccc2)C1=O)Nc1ccccc1 (stereo not given)
→ -0.9%	·	·	2.4%	4.6%	·	·	4.2%
C/C(CC1(O)C(=O)N(C)c2ccccc21)=N\O (stereo not given)
→ 0.8%	5.5%	2.9%	-9.3%	2.8%	7.9%	19.4%	-3.4%
N#Cc1ccccc1Cn1cc(/C=N/Nc2ccc([N+](=O)[O-])cn2)c2ccccc21
→ 0.1%	·	·	-13.7%	-25.5%	?	-26.4%	·
CCOC(=O)c1ccc(-c2ccc(C3Nc4ccccc4C(=O)N3O)o2)cc1 (stereo not given)
→ 5.01µM*	-15.0%	?	-2.8%	?	?	?	-28.6%
CCOC(=O)C1CCCN(Cc2cccc(Oc3ccccc3)c2)C1 (stereo not given)
→ 9.8%	·	·	-5.0%	-3.8%	1.1%	3.1%	0.4%
COC(=O)c1ccccc1NC(=O)CN(C)Cc1ccccc1
→ 0.6%	·	·	6.7%	0.0%	?	1.9%[46.1 µM]	·
O=C(NNC(=O)c1ccccc1-n1cccc1)c1ccc(Cl)cc1
→ -3.3%	3.3%	11.2%	-11.3%	0.6%	1.0%	-0.2%	7.9%
COc1ccc(S(=O)(=O)N(CC(=O)NC2CC2)c2ccc(C)cc2)cc1
→ 0.7%	·	·	3.6%	9.9%	?	0.9%	-0.7%
CCCCNC(=O)OCCNC(=O)NC
→ 6.7%	1.1%	9.6%	-5.6%	-6.6%	10.2%	?	5.1%
COc1ccc(NS(=O)(=O)c2cccc3cccnc23)cc1OC
→ -0.2%	·	·	-2.8%	-0.2%	-31.1%[46.1 µM]	-15.2%[46.1 µM]	8.6%
Cc1ccc(C)c(NC(=O)C2CCN(S(=O)(=O)c3ccc4c(c3)NC(=O)CO4)CC2)c1
→ 2.1%	·	·	-3.3%	?	·	·	-1.0%
O=C(Nc1ccc(OC(F)(F)F)cc1)N1CCN(c2ccnc3cc(Cl)ccc23)CC1
→ -10.5%	·	·	-5.7%	?	·	·	-9.2%
N#CC1=C(SCC(=O)NC2CC2)NC(=O)C(C#N)C12CCCCC2 (stereo not given)
→ 6.6%	3.0%	5.5%	4.3%	-2.2%	21.0%	10.1%	-1.1%
COc1ccc(OC)c(N/C=C/C(=C(C#N)C#N)N(C)C)c1
→ -1.1%	·	·	-11.9%	12.0%	?	-6.1%[46.1 µM]	0.0%
Nc1ccc(C(=O)N/N=C/c2sc(N3CCOCC3)nc2-c2ccccc2)cc1
→ -23.4%	-10.8%	5.9%	7.3%	-5.8%	?	-17.7%	17.1%
CCCc1sc(N)nc1-c1ccc(C)cc1
→ 3.2%	-6.0%	0.7%	-13.5%	-15.5%	-12.7%	1.8%	-28.2%
O=C(Nc1ccc(Br)cc1F)C1CCN(c2nnc(-n3cccc3)s2)CC1
→ 2.8%	-0.5%	?	0.7%	-12.7%	-2.7%	·	-41.3%
O=C(Cc1n[nH]c(=O)c2ccccc12)OCC(=O)c1ccc(F)c(F)c1
→ -0.1%	·	·	6.2%	-13.3%	18.2%	7.9%[46.1 µM]	·
Cc1cnc(C(=O)Nc2nnc(C)s2)cn1
→ 5.2%	1.3%	-1.5%	-16.6%	12.1%	1.1%	5.7%	9.2%
COC(=O)C1=C(C)N(c2ccc(Br)cc2)C(=O)/C1=C\c1ccco1
→ 6.1%	-5.9%	-13.3%	-23.1%	0.0%	1.7%	-12.1%	42.3%
C=C1C/C(=C/C)C(=O)O[C@@H]2CCN3CC=C(COC(=O)[C@]1(C)O)[C@H]23
→ 0.9%	·	·	-2.9%	1.6%	·	·	-0.4%
Cn1c(=S)ccc2ccccc21
→ -1.3%	·	·	64.3%	15.8%	13.4%[46.1 µM]	16.2%[46.1 µM]	·
CS(=O)(=O)N(CC(=O)NCC1CCCO1)c1ccc(Cl)c(Cl)c1 (stereo not given)
→ -2.0%	1.0%	2.8%	2.7%	·	-13.4%	4.1%	3.1%
Cc1cccc(NC(=S)NC23CN4CN(CN(C4)C2)C3)c1C
→ 0.3%	·	·	29.7%	-13.9%	1.0%[46.1 µM]	·	·
CC(NS(=O)(=O)c1ccccc1)C(c1cccs1)N1CCN(C)CC1 (stereo not given)
→ -3.7%	4.7%	-0.6%	-3.8%	·	-14.2%&-0.1%	-3.5%	-0.2%
CC(C)CCSc1nc2c(c(=O)[nH]c(=O)n2C)n1CCCc1ccccc1
→ -3.4%	-10.1%	17.2%	9.3%	?	-22.6%&-22.6%	17.3%	?
OCCC1CN(CCCc2ccccc2)CCN1Cc1ccc(F)cc1 (stereo not given)
→ 7.8%	·	·	3.4%	-18.6%	?	-25.3%	-8.9%
COC(=O)c1ccc(CSc2nnc(C)s2)cc1
→ 5.9%	7.1%	-12.8%	-27.6%	32.6%[activator]	?	-1.2%	-6.9%
CN(C)c1cccc(C(=O)NCC2CCCO2)c1 (stereo not given)
→ -2.6%	1.5%	4.5%	-16.5%	40.0%[activator]	6.9%	29.2%	-1.7%
CCn1cc(C(=O)NC2CCCCC2C)c(=O)c2ccc(C)nc21 (stereo not given)
→ ·	4.2%	1.3%	11.1%	-13.8%	5.5%	-17.4%	-34.9%
COc1ccc(OC)c(NC(=O)c2c3c(nc4ccccc24)CCC3)c1
→ 0.9%	-0.1%	0.2%	0.7%	-2.8%	?	-12.3%	6.1%
COC(=O)CSc1nnc(SCc2ccc(OC)cc2)s1
→ -4.7%	-5.2%	-21.9%	1.5%	-21.4%	?	-25.4%	-22.6%
C=CCn1c(SC(C)C(=O)NCCC2=CCCCC2)nc2ccccc2c1=O (stereo not given)
→ 2.8%	-8.2%	11.5%	-1.0%	-26.2%	?	?	-68.0%
CCN(CC)S(=O)(=O)c1ccc(-c2nnc(SCc3nnc(-c4ccc(C)cc4)o3)n2CC)cc1
→ 0.2%	-5.0%	?	-4.7%[3.69 µM]	0.0%	0.1%	2.4%	3.3%
CCOc1ccc2nc(NC(=O)c3cc([N+](=O)[O-])ccc3N3CCOCC3)sc2c1
→ -9.5%	-3.5%	-8.5%	?	?	-0.9%	1.9%	4.4%
CCOC(=O)C1=C(N)Oc2cc(O)ccc2C1c1cccnc1 (stereo not given)
→ -2.0%	-0.4%	-0.3%	16.6%	?	-1.9%	14.9%	-16.9%
O=C(COC(=O)c1cc([N+](=O)[O-])ccc1NCCO)Nc1cccc(S(=O)(=O)N2CCCC2)c1
→ 3.5%	·	·	-9.8%	0.0%	-4.6%[46.1 µM]	?	·
CCOc1ccccc1NC(=S)N1CCN(c2nc(-c3ccc(F)cc3)cs2)CC1
→ -1.2%	·	·	-2.3%	-21.4%	·	·	13.3%
Cc1ccc(SCC(=O)NCc2ccncc2)cc1
→ -0.8%	-0.4%	0.8%	-9.3%	7.1%	-3.6%	1.5%	10.8%
CSc1ccccc1NC(=O)c1cc(Cl)sc1Cl
→ -5.5%	·	·	-11.3%	7.8%	-13.4%	?	-9.2%
O=C(CN1CCOCC1)NCc1ccccc1
→ 6.0%	-1.4%	-0.1%	-9.8%	-16.9%	11.0%	4.0%	-5.0%
CNC(=S)N=Nc1c(O)[nH]c2ccc(C(C)C)cc12
→ -3.9%	-7.8%	-0.8%	·	-3.4%	?	?	6.6%
Cn1c(=O)c2c(nc(CN3CCN(c4ccccc4)CC3)n2Cc2ccccc2F)n(C)c1=O
→ 1.2%	-0.9%	?	·	·	2.1%	·	-7.3%
Cc1ccc(CN2C(=O)N(c3ccc(F)cc3)C(=O)C2CC(=O)Nc2ccc(Cl)cc2)cc1 (stereo not given)
→ ·	0.1%	-26.5%	·	?	0.4%[46.1 µM]	9.4%[46.1 µM]	·
COc1ccc(S(=O)(=O)NCC(c2cccnc2)N2CCN(Cc3ccccc3)CC2)cc1C (stereo not given)
→ -2.8%	·	·	-4.1%	6.3%	?	?	-7.5%
CCCCCCCCCCCC(=O)NC(C(=O)O)C(O)c1ccccc1 (stereo not given)
→ 0.4%	·	·	-15.9%	-6.9%	-1.1%[46.1 µM]	-20.9%	6.1%
Cc1ccc(S(=O)(=O)N2CCCCC2)cc1C(=O)N1CCCC1
→ -9.8%	·	·	4.9%	-5.5%	13.6%	-0.7%	8.2%
O=[N+]([O-])c1cc(C(F)(F)F)ccc1N1CCC(O)CC1
→ -1.1%	·	·	?	-12.8%	-0.8%[46.1 µM]	2.3%[46.1 µM]	14.1%
Cc1cccc(N2CCN(CC(=O)NCC3CCCCC3)CC2)c1C
→ 4.0%	1.1%	-0.3%	4.6%	-4.7%	-4.2%	-28.6%	-50.7%
CCCN(CCC)c1ncnc2c1cnn2-c1ccc(OC)cc1
→ 1.4%	-1.5%	11.8%	-3.7%	·	?	?	-82.4%
CCOC(=O)Cc1csc(NC(=O)CSc2ncnc3c2cnn3-c2ccc(OC)cc2)n1
→ 2.5%	-5.5%	29.4%	-8.1%	22.4µM*	?	2µM*	-8.0%
CCCCNc1nc2c(S(=O)(=O)c3ccccc3)nnn2c2ccccc12
→ -4.8%	·	·	10.4%	6.1%	·	·	-0.4%
